NPR1 antag: antagonists of human natriuretic peptide receptor Npr1 | P16066 | actives 1.6% (n = 76,000) | HEK293 hNpr1 GloSensor cGMP, ANP-stimulated luminescence | Potency, µM (series often up to 46.3 µM), without a hit: at the highest dose activity change, negative = inhibition, usual class: inhibitors; active = well fitted inhibition curve with a large enough effect; inconclusive = small, poorly fitted or top-dose-only effect; inactive = no such curve, though single readings can be large or run the other way;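 note: nearly all actives have a fitted effect of over 60% in size; nearly all hits also lower the signal before the agonist is added; a reference antagonist and vehicle were the controls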
Target sequence (P16066 whole entry, looked up): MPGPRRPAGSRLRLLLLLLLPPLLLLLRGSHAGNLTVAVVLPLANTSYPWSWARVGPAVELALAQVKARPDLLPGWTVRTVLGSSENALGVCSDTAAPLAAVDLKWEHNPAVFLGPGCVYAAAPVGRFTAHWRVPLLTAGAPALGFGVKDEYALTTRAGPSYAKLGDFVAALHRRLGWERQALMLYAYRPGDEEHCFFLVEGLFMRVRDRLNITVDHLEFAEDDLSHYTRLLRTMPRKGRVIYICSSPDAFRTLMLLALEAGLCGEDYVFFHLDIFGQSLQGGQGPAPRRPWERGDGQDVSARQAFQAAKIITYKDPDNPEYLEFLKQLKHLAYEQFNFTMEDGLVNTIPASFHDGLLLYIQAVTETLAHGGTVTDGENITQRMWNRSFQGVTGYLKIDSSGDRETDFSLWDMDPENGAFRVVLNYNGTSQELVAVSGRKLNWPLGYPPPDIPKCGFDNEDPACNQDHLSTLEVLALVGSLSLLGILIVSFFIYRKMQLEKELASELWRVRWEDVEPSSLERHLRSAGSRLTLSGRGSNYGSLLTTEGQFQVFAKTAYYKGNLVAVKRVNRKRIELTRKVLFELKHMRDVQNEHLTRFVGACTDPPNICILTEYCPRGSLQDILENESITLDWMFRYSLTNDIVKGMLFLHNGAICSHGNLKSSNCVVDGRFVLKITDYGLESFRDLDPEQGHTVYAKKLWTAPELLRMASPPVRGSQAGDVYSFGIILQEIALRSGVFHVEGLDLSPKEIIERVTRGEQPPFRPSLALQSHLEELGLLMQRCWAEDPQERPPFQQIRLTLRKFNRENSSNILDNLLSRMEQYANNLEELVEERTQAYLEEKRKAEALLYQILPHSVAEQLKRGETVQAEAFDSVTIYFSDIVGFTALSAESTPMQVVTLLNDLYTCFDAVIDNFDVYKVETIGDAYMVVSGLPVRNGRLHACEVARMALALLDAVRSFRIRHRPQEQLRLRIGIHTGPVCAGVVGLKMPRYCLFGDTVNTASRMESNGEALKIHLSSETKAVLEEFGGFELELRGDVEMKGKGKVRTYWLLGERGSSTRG
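HEK293 cells stably expressing human Npr1 and cGMP GloSensor pGS-40F, loaded 2 h with 2% GloSensor reagent, given compound 30 min at room temperature. Luminescence read before and 20 min after 0.1 nM hNppA.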
The depositor's hits bear a star; ? = inconclusive; [ ] = dose if it differs, or a comment. % is set by controls: 0 for no effect and ±100 for the full control effect; potency is the fitted concentration of half-maximal effect.

The opening 15 compounds (preview)
NPR1 antag,compound
4%,CN1CCCC1c1nc(C2CN(S(=O)(=O)Cc3cccc(F)c3)C2)no1 (stereo not drawn)
5%,C=CCNC(=O)C1N(C(C)C)C(=O)C12CCCCC2 (stereo not drawn)
0%,COc1ccc(CCN(CC2CCN(C)CC2)C(=O)C(C)N2CCOCC2)cc1 (stereo not drawn)
-1%,Cc1cc(C)n(CCC(=O)N2CCCn3cc(-c4ccccc4)nc32)n1
0%,Cc1ccc(CNC(=O)C2(c3ccc(NS(C)(=O)=O)cc3)CCCCC2)cc1
-3%,CCOCCCNC(=O)c1ccc(CN2C(=O)NC3(CCS(=O)(=O)CC3)C2=O)cc1
3%,Cc1nc2cc(N3CCCC(C(=O)O)C3)cnc2nc1C (stereo not drawn)
0%,COc1ccc(C(=O)NC2CCN(c3cn[nH]c(=O)c3)CC2)c(OC)n1
2%,O=C(NCC1Cn2cccc2CN1Cc1ccccc1)c1c[nH]c2ccccc12 (stereo not drawn)
-2%,Cc1cccc(-n2nc(C)n(CC(=O)N[C@@H]3CS(=O)(=O)C[C@H]3O)c2=O)c1
6%,COc1cccc(C(=O)N2CCC[C@H]2c2nc(-c3ccc(OC)c(OC)c3)no2)c1
5%,COc1ccccc1CC(=O)NCc1nnc2ccc(-c3ccc(C)cc3)nn12
3%,O=C1CCN(S(=O)(=O)c2ccc3c(c2)CCC3)CCCC(c2nc(-c3cccnc3)no2)CCN1 (stereo not drawn)
-6%[70.6 µM],O=C(N[C@H]1CO[C@H]2[C@@H]1OC[C@@H]2Nc1nccc(-c2cccc(F)c2)n1)c1ccccc1
17%[70.6 µM],C=CCNC(=O)c1cc2cccnn2n1

Results, from the start:
NPR1 antag,compound
4%,CN1CCCC1c1nc(C2CN(S(=O)(=O)Cc3cccc(F)c3)C2)no1 (stereo not drawn)
5%,C=CCNC(=O)C1N(C(C)C)C(=O)C12CCCCC2 (stereo not drawn)
0%,COc1ccc(CCN(CC2CCN(C)CC2)C(=O)C(C)N2CCOCC2)cc1 (stereo not drawn)
-1%,Cc1cc(C)n(CCC(=O)N2CCCn3cc(-c4ccccc4)nc32)n1
0%,Cc1ccc(CNC(=O)C2(c3ccc(NS(C)(=O)=O)cc3)CCCCC2)cc1
-3%,CCOCCCNC(=O)c1ccc(CN2C(=O)NC3(CCS(=O)(=O)CC3)C2=O)cc1
3%,Cc1nc2cc(N3CCCC(C(=O)O)C3)cnc2nc1C (stereo not drawn)
0%,COc1ccc(C(=O)NC2CCN(c3cn[nH]c(=O)c3)CC2)c(OC)n1
2%,O=C(NCC1Cn2cccc2CN1Cc1ccccc1)c1c[nH]c2ccccc12 (stereo not drawn)
-2%,Cc1cccc(-n2nc(C)n(CC(=O)N[C@@H]3CS(=O)(=O)C[C@H]3O)c2=O)c1
6%,COc1cccc(C(=O)N2CCC[C@H]2c2nc(-c3ccc(OC)c(OC)c3)no2)c1
5%,COc1ccccc1CC(=O)NCc1nnc2ccc(-c3ccc(C)cc3)nn12
3%,O=C1CCN(S(=O)(=O)c2ccc3c(c2)CCC3)CCCC(c2nc(-c3cccnc3)no2)CCN1 (stereo not drawn)
-6%[70.6 µM],O=C(N[C@H]1CO[C@H]2[C@@H]1OC[C@@H]2Nc1nccc(-c2cccc(F)c2)n1)c1ccccc1
17%[70.6 µM],C=CCNC(=O)c1cc2cccnn2n1
?,CC1=C[C@@H](CC#N)[C@H](C(C)C)C[C@H]1CC(=O)N1CCN(c2ncccn2)CC1
-11%[70.6 µM],CCOCC1(C)COc2ccc(C(=O)Nc3ccc(OC)nc3)cc2N1 (stereo not drawn)
-2%,Cc1ccc(C(=O)N2CCCC(n3c(C)cnc3C3CCOCC3)C2)s1 (stereo not drawn)
-2%,Cc1ccc(C2Cn3nnc(C(=O)N4CCC(C(=O)NCc5cccc(F)c5)CC4)c3CO2)cc1 (stereo not drawn)
-13%,CCOc1ccc(CC(=O)N2CCC[C@H]2c2nc(-c3ccccc3Cl)no2)cc1OCC
0%,O=C(c1ccccc1OC1CCN(Cc2ccccn2)CC1)N1CCSCC1
-2%,CCC(=O)NC1CCN(C(=O)N2CC3CC(C2)[C@H]2CCCC(=O)N2C3)CC1 (stereo partly drawn)
-24%[70.6 µM],COCCN1CCC2(C1)CN(C)c1ccc(C(=O)Nc3ccc(OC)cc3)cc12 (stereo not drawn)
15%[70.6 µM],COc1ccc(C(=O)N(C)Cc2ccccc2C(F)(F)F)cc1
2%[70.6 µM],CCN(CC)Cc1nc(C2(O)CCN(C(C)=O)CC2)cs1
0%[70.6 µM],CNC(=O)c1cnn2cc(C)ccc12
1%,O=C(Nc1nc2c(s1)CCC2)C1CC(=O)N(c2n[nH]c3cccc(F)c23)C1 (stereo not drawn)
0%,Cc1cc(C)cc(NC(=O)C2CCN(c3cc(C(F)(F)F)nc(C)n3)CC2)c1
2%,COc1ccc(CN2CCc3nc(N4CCN(C)CC4)[nH]c(=O)c3CC2)c(Cl)c1OC
-6%,CCOc1cc(=O)n2c(c1C(=O)Nc1ccc(Cl)c(F)c1)CCCC2
12%,Cc1noc(C)c1CC(=O)N1CCC(c2nc(C3CCOCC3)no2)CC1
1%,Cc1noc(C)c1C(=O)NC1CCc2nnc(C)n2CC1 (stereo not drawn)
9%,CN(C)C(=O)c1noc2c1CN(C(=O)C1COc3ccccc3C1)CC2 (stereo not drawn)
?,CN(Cc1cccnc1)C(=O)c1ccc2c(c1)C(O)CCCCCN2C (stereo not drawn)
-1%[70.6 µM],COc1ccc(C(=O)N2CC[C@@H](CC(=O)O)[C@@H](CCN3CCC(C(N)=O)CC3)C2)cc1
-2%,CCOCC(=O)N1CCC2(CC1)CN(Cc1ccccc1)CC2CO (stereo not drawn)
?,Cc1nn(-c2cccc(Br)c2)c(C)c1[C@@H]1C=C[C@@H](NS(C)(=O)=O)C1
2%[70.6 µM],CN1CCC(N2CC[C@@H]3[C@H]2C(=O)NC[C@H](CCC(=O)NCc2ccco2)N3C)CC1
0%,O=C(N[C@H](c1ccccn1)C1CC(O)C1)c1ccc2c(c1)ncn2CCO (stereo partly drawn)
-1%,CCOc1cc(C(=O)N2CCN(c3cc(-c4cccs4)[nH]n3)CC2)cc(OCC)c1OCC
4%,Cc1cnc(C(=O)NC2C[C@H]3CC[C@@H](C2)N3C(=O)Cc2cccc(F)c2)cn1 (stereo partly drawn)
-26%,Cc1ccc(F)cc1S(=O)(=O)NC1CCN(c2ccc(=O)n(CC3CC3)n2)CC1
-15%[70.6 µM],Cn1nccc1CN1CCC2(CC1)Cc1ccccc1NC2=O
0%,Cc1ncsc1CN1CCCN(S(=O)(=O)c2ccccc2)CCC(=O)NCC1
5%,CS(=O)(=O)N1CCCC(C(=O)NCCN2CCOCC2)CCNC(=O)CC1 (stereo not drawn)
1%,C=CCN(Cc1cccc(OCC(N)=O)c1)Cc1ccccc1C
2%,O=C1NCCOCCCN(C(=O)CC2CCCC2)[C@H]2CCC[C@@H]12
5%,CCCc1nn(-c2cccc(C)c2)c(=O)n1CC(=O)NCC1(O)CCCCC1
-3%,COc1ccc(C(C)NC(=O)C2(c3ccc(NS(C)(=O)=O)cc3)CCCCC2)cc1 (stereo not drawn)
1%,CCn1nc(C)c(CN2C[C@@H](CO)[C@H](c3nc(COC)no3)C2)c1C

Additional records
NPR1 antag,compound
5%,COc1ccc(-c2noc([C@@H]3CCCN3C(=O)c3ccsc3)n2)cc1OC
0%[70.6 µM],COc1ccc(-c2ccnc(N[C@H]3CO[C@H]4[C@@H]3OC[C@H]4OCC(N)=O)n2)cc1
-1%[70.6 µM],O=C1CC2CCCC(C1)N2C(=O)c1cncc(Br)c1
0%,COc1ccc(NC(=O)Cn2c(=O)c(-c3noc(C)n3)c3n(c2=O)CCCC3)cc1Cl
-9%,Cn1nccc1C(=O)N1CCC2(CC1)CC(Cc1nc(C3CC3)no1)CCO2 (stereo not drawn)
-21%,Cc1nn2c(c1-c1cccnc1N1CCOCC1)N(C(=O)Cc1cccc(Cl)c1)CCC2
6.3µM*,CCNC(=O)O[C@@H]1CO[C@H]2[C@@H]1OC[C@@H]2Nc1nccc(-c2ccc(-c3ccccc3)cc2)n1
-10%,COc1cccc(NC(=O)c2ccc3c(c2)N(C)C2CCCN2C3=O)c1 (stereo not drawn)
-11%,O=C(CCc1conc1-c1cccc(F)c1)NCc1cccc(Cl)c1
-2%,O=C(COc1ccccc1)N1CCCC(n2cc(-c3nc(C4CC4)no3)nn2)C1 (stereo not drawn)
2%,COc1ccc(C(=O)N2CCCN(S(C)(=O)=O)c3ccccc32)c(C)c1
?,N#Cc1ccc(CN2CCCC3(CC(c4cccc(C(F)(F)F)c4)=NO3)C2)cc1 (stereo not drawn)
-2%,COc1ccccc1C(=O)N[C@@H]1CN(C2CCOCC2)C[C@H]1CN(C)C
-1%,Cc1nc(C)n(CCNC(=O)[C@H]2CNC[C@@H](C(=O)N3CCOCC3)C2)n1
-12%,O=C(c1ccc(F)c(F)c1)N1CCC2(CC1)NC(=O)N(Cc1ccc(F)cc1)C2=O
-3%,COCCOC(=O)C1=C(C)N=C2SC=C(CC(=O)NCCc3ccccc3)N2C1c1ccccc1 (stereo not drawn)
1%,CCn1nccc1C(=O)N1CCCC(c2nc(-c3cccnc3)no2)CCNC(=O)CC1 (stereo not drawn)
5%[70.6 µM],Cn1cc(-c2cnc3[nH]cc(CC(=O)Nc4ccc(N5CCOCC5)cc4)c3c2)cn1
2%,Cc1cc2nc3n(c(=O)c2n1CC(=O)Nc1ccc(F)cc1)CCCCC3
-1%,COc1cc(NC(=O)Cn2ccn3nc(-c4ccccc4)c(CO)c3c2=O)cc(OC)c1OC
-3%,CC(C)(CC(=O)O)CC(=O)N1CCN2C(=O)c3cc(-c4ccc(Cl)cc4)ccc3NC(=O)[C@H]2C1
-3%,COc1cc(OC)c(CNC(=O)c2c(C)noc2-c2cccs2)c(OC)c1
3%[70.6 µM],COc1ccc(NC(=O)C2(C)CCCc3cnc(Nc4cccnc4)nc32)cc1 (stereo not drawn)
0%,N[C@@H](Cc1cnc[nH]1)C(=O)N1CCC(c2cc(-c3ccccc3Cl)n[nH]2)CC1
0%,O=C(O)Cn1nc(C2CCOCC2)nc1C1CNC(=O)C1 (stereo not drawn)
0%,O=C(NCc1ccc(F)cc1)N1CCC(c2noc(-c3cnccn3)n2)C1 (stereo not drawn)
-5%[70.6 µM],COc1ccc(CO[C@H]2COCCN(c3nc4ccccc4s3)C2)cc1
-2%,COC[C@H]1NC(=O)CC[C@H]1C(=O)NCc1ccccc1OC
2%,Cc1cc(C)n2ncc(CN3CCCC3c3nc(-c4ccncc4)no3)c2n1 (stereo not drawn)
1%,COCCNC(=O)CC1Sc2ncccc2N(CC(C)C)C1=O (stereo not drawn)
0%[70.6 µM],CC(=O)N1CCC(O)(c2csc(CN3CCN(C)CC3)n2)CC1
-1%,Cc1noc([C@@H]2CN(Cc3cccc(Cl)c3)C[C@H]2CO)n1
1%,CC(C)CCNC(=O)C1CCN(C(=O)N2CC3CC(C2)[C@H]2CCCC(=O)N2C3)CC1 (stereo partly drawn)
4%[70.6 µM],COc1ccc(CN2C(=O)CO[C@H]3CN(C(=O)NCc4ccccc4)C[C@H]32)cc1
-7%,Cc1noc([C@@H]2CC(F)(F)CN2)n1
-5%,O=C(NCc1ccccc1)N1CCCC(Cn2cnc3cccnc32)C1 (stereo not drawn)
3%,O=C1CCCCC(CNC(=O)c2ccccn2)N1 (stereo not drawn)
-26%,O=C(CN1C(=O)NC(c2ccc(Cl)cc2)C2=C1COC2=O)Nc1ccc(Cl)cc1F (stereo not drawn)
-11%[70.6 µM],CC#CCn1cc2c3c(cccc31)[C@H](CC(C)C)N[C@H](C(=O)NC1CC1)C2
2%,CC(C)c1noc(C2CCCN(S(C)(=O)=O)CCC(=O)NCC2)n1 (stereo not drawn)
-4%[70.6 µM],CC1=C[C@@H](CNCc2ccc(F)cc2)[C@H](C(C)C)C[C@H]1Cc1nnc(-c2cncn2C)o1
17%,COc1ccc(CNC(=O)N2CCCC(Cc3noc(-c4cnccn4)n3)C2)cc1 (stereo not drawn)
-11%,Cc1noc([C@@H]2CN(C(=O)c3occc3C)C[C@H]2COCC2CC2)n1
-5%,COc1cc2c(cc1OC)C(C[C@H]1CN(C(=O)Nc3ccc(F)cc3)CC[C@H]1CC(=O)O)=NCC2
-8%,CCOC1CCOC2(CCN(C(=O)c3nn(C)c4ccccc34)CC2)C1 (stereo not drawn)
-1%,CC(C)c1nnc(C2CN(C(=O)c3ccc4ccccc4n3)CC23CCOCC3)o1 (stereo not drawn)
6%,O=S(=O)(c1cc(F)cc(F)c1)N1CCCC(Cn2c(C3CC3)nc3cccnc32)C1 (stereo not drawn)
?,CCn1cc(CN(C)C(=O)c2ccc3c(c2)C(O)CCCCCN3C)c(C)n1 (stereo not drawn)
-23%[70.6 µM],CC(C)(Oc1nn(Cc2cccc(Cl)c2)c2ccccc12)C(=O)NC1CC1
0%,COCC(=O)N1CC(F)(F)C[C@H]1c1nc(-c2cccnc2)no1

The listing continues:
NPR1 antag,compound
1%,O=C1CC(c2ccccc2)N(Cc2ccncc2)CCCN(C(=O)NCc2ccc(F)cc2)CCN1 (stereo not drawn)
5%,C=CCN1CCN(C(=O)CCC[C@@H]2[C@H]3CCCN4CCC[C@@H](CN2Cc2cccnc2)[C@@H]34)CC1
?,COc1ccc(C2Cn3nnc(C(=O)N4CCN(C(=O)Cc5ccc(Cl)cc5)CC4)c3CO2)cc1 (stereo not drawn)
-2%,COc1cccc(CNC(=O)[C@@H]2C[C@@H](O)CN2C2CCN(C(=O)c3ccc(C)s3)CC2)c1
2%,Cc1ccccc1C(=O)N1CCC2(CC1)OCC(C(=O)NCC1CCCO1)N2C(=O)c1ccccc1 (stereo not drawn)
2%,O=C(NCc1nncn1C1CCCCC1)C1NCCc2[nH]cnc21 (stereo not drawn)

This is a subset; rates above refer to the full screens.
